# ClpP mod: qHTS Assay for Activators of ClpP. purified B. subtilis ClpP, FRET peptide cleavage, 20 min. Potency, µM (series often up to 57.5 µM), for inactives: at the highest dose activity change, negative = active. 340,000 compounds, 1.9% hits. AID 651965, 2013; active = well fitted falling curve with a large enough effect; inconclusive = small, poorly fitted or top-dose-only effect; inactive = no such curve, though single readings can be large or run the other way; also: the source files actives as falling curves though it sought activators and does not explain the sign; nearly all actives have a fitted effect of over 65% in size; many hits overshoot -100%
# Target sequence (P80244 whole entry, looked up): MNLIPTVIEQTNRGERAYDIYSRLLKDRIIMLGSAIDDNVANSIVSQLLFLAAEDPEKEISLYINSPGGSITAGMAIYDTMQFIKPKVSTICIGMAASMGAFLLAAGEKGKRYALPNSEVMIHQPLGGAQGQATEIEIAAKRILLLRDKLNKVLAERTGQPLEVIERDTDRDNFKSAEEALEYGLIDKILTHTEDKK
#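 Buffer: 100 mM Tris/HCl pH8, 100 mM KCl, 0.05% low protease BSA, 2.5% glycerol, 0.01% Tween-20. ClpP 10 microg/mL final; 20 min RT; delta FRET normalized to ADEP and DMSO controls.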
# * = called active by the depositor; u = inconclusive. Potency is read from the fitted curve at half-maximal effect.
canonical_smiles,ClpP mod
COc1ccc(OC)c(NC(=O)Nc2cccc(OCc3cc(=O)n4cc(C)ccc4n3)c2)c1,-2.8%
CC(C)c1ccc(S(=O)(=O)NCc2nc3cccnc3n2Cc2ccc(F)cc2)cc1,-0.2%
Cc1ccc(NC(=O)CSc2ccc3nnc(CCNS(=O)(=O)c4ccccc4)n3n2)cc1Cl,-0.3%
CCc1nnc(SC(CC)C(=O)Nc2ccc(OC)c(Cl)c2)c2cc3occc3n12 (stereo unspecified),-18.9%
CCOc1ccc(C(=O)Nc2ccccc2OCc2cc(=O)n3ccccc3n2)cc1,12.5%
CCOc1ccccc1NC(=O)Cn1ccn(Cc2ccc(C)cc2)c(=O)c1=O,-1.3%
Cc1ccccc1OCC(=O)Nc1cccc(C(=O)OCc2cc(=O)n3c(C)csc3n2)c1,-5.7%
N#Cc1ccc(S(=O)(=O)N2CCC(Oc3cccc(C(F)(F)F)c3)CC2)cc1,-1.8%
CC1CCc2noc(NC(=O)c3ccccc3[N+](=O)[O-])c2C1 (stereo unspecified),1.8%
Cc1ccc2c(CC(=O)N(Cc3ccc(Cl)cc3)Cc3ccco3)coc2c1,-7.1%
C=CCN1[C@@H](C(C)C)COCCS1(=O)=O,-1.2%
CCc1ccc(-c2cc(C)no2)cc1S(=O)(=O)NCc1ccc(OC)cc1,-1.9%
COc1ccccc1CNC(=O)CCn1c(=O)c2ccccc2n(CC(=O)Nc2ccc(C)cc2C)c1=O,-1.2%
O=C(NC1CC(=O)N(c2ccc(Cl)cc2)C1)C1CCCCC1 (stereo unspecified),-3.2%
COc1ccc(-c2nc3ccccc3o2)cc1NC(=O)C(C)Oc1ccc(Cl)cc1Cl (stereo unspecified),2.5%
Cc1cccc(Nc2cc(C)nc3nc(-c4ccccc4)nn23)c1,-7.9%
c1coc(CNc2nc(NCc3ccco3)c3ccccc3n2)c1,4.6%
O=C(NCc1ccccc1Cl)c1ccc(NC(=O)N2CCCCc3ccccc32)cc1,-2.2%
Cc1cccc(NC(=O)CN2C(=O)c3ccccc3Sc3ncccc32)c1C,-0.1%
CCCN(CCC)c1nn2c(=O)c(C(=O)NCc3cccc(OC)c3)cnc2s1,u
Cc1ccc(NC(=O)COC(=O)c2ccccc2OCC(=O)Nc2ccc(Br)cc2)c(C)c1,-2.7%
C/C(=C1/C=Nc2ccccc21)c1ccc(N(C)C)cc1,-12.8%
CCc1ccc(OCC(=O)N(Cc2ccc(C)cc2)Cc2ccco2)cc1,1.4%
CCC(C)NC(=O)CCC(=O)N1Cc2ccccc2Oc2ncccc21 (stereo unspecified),1.0%
COc1ccccc1Cc1nc2ccccc2nc1SCC(=O)N1CCN(c2ccccc2)CC1,0.3%
Cc1ccccc1Nc1nn2c(=O)c3ccc(C(=O)NCc4ccccc4)cc3nc2s1,4.7%
Cc1ccc(C)c(CNC(=O)c2cnc3sc(N4CCCC4)nn3c2=O)c1,3.9%
Cc1ccc(O)c(C(CC(=O)NCC2(c3ccccc3)CCCC2)c2ccccc2)c1 (stereo unspecified),2.3%
COc1ccc(CNCc2c(C(=O)O)c(C)n(Cc3ccc(Cl)cc3)c2C)c(OC)c1,-1.0%
COc1cc2cc(CNc3ccc(C)cc3)c(=O)n(CC(=O)Nc3ccc(F)cc3F)c2cc1OC,4.3%
COc1ccc(CCNC(=O)C(=O)NCC(c2ccco2)S(=O)(=O)c2cccs2)cc1 (stereo unspecified),1.6%
Cc1cc(=O)[nH]c2nc(N)ccc12,4.0%
CC(C)Cn1c(=O)c2ccccc2n2c(-c3ccc(Br)cc3)nnc12,-1.3%
O=C(Nc1ccc(F)cc1F)c1c2c(nc3ccccc13)C(=O)N(C1CCCCC1)C2,0.3%
CCOc1ccc(CN2CCc3nc(Nc4ccc(OC)cc4OC)ncc3C2)cc1,1.3%
Cc1ccc(-c2nc(CS(=O)(=O)CC(=O)N3CCN(c4ccccc4)CC3)c(C)o2)cc1,-2.7%
Cc1ccc(Cl)cc1NC(=O)Cn1c(=O)c(CNc2ccccc2)cc2cc3c(cc21)OCCO3,-25.1%
CCCCOc1nnc(-c2ccc(OCC)cc2)c2ccccc12,-0.6%
CCN(CCCNC(=O)c1nn(-c2ccc(C)cc2)c(=O)c2c1c1ccccc1n2C)c1cccc(C)c1,-3.3%
CSc1ncc(C(=O)Nc2ccc(C)c(Cl)c2)c(-c2ccccc2)n1,u
COc1cc(NC(=O)N2CCC3(CC2)Nc2cc(F)ccc2-n2cccc23)cc(OC)c1OC,-14.5%
CCOc1ccc(C(=O)NCC(c2cccs2)S(=O)(=O)c2ccccc2)cc1 (stereo unspecified),-1.1%
Cc1cccc(N2CCN(C(=O)CCCCn3c(=O)[nH]c4ccsc4c3=O)CC2)c1C,-5.3%
O=C(O)CCc1nnc2cnc3ccccc3n12,-8.0%
Cn1c(C(=O)NCCc2ccccc2)cc2c(=O)n3ccccc3nc21,4.4%
CCOC(=O)Cn1c(=N)n(Cc2ccc(C(C)(C)C)cc2)c2ccccc21,-4.1%
CCOc1cc(C(=O)OCc2cc(=O)n3nc(CC)sc3n2)cc(OCC)c1OCC,-3.5%
Cc1cc(C)c(Cn2c3ccccc3c3cnn(CC(=O)NCCC4=CCCCC4)c(=O)c32)c(C)c1,-1.6%
Cc1cccc(C)c1OCC(=O)Nc1c(C(=O)c2ccccc2)oc2ccccc12,-0.3%
Cc1cccc(-c2nc(CSCC(=O)N3CCN(c4cccc(C)c4C)CC3)c(C)o2)c1,u
COc1ccccc1CNC(=O)CN(c1ccccc1OC)S(C)(=O)=O,0.6%
CCC(=O)N1CCCc2cc(S(=O)(=O)Nc3ccc(C)c(C)c3)ccc21,-0.9%
O=c1c2cc3c(cc2nc2sc(Nc4ccc(F)cc4F)nn12)OCO3,1.4%
CCc1cc(=O)[nH]c(SCc2nc(-c3ccc(C(F)(F)F)cc3)no2)n1,1.3%
COc1cc(C2CC(=O)Nc3c2c(=O)[nH]c2ncnn32)ccc1O (stereo unspecified),-0.4%
COc1ccc2nc(N(Cc3cccnc3)C(=O)CCc3ccccc3)sc2c1,-0.9%
Cc1ccc(CNc2nc3ccccc3n3c(C)nnc23)cc1,-2.6%
Cc1c(Cl)cccc1NC(=O)N1CCC(CN2CCCC2)CC1,0.0%
CCN(CC)C(=O)Cn1c(=O)n(-c2ccc(C)c(C)c2)c(=O)c2c(C)c(C(=O)N(CC)CC)sc21,0.0%
Cc1ccc(NC(=O)Cn2c(-c3nonc3N)nc3ccccc32)c(Br)c1,-0.7%

# Reprinted at random: seven records from the list
canonical_smiles,ClpP mod
Cc1c(Cl)cccc1NC(=O)N1CCC(CN2CCCC2)CC1,0.0%
CCc1cc(=O)[nH]c(SCc2nc(-c3ccc(C(F)(F)F)cc3)no2)n1,1.3%
COc1ccc2nc(N(Cc3cccnc3)C(=O)CCc3ccccc3)sc2c1,-0.9%
CCN(CC)C(=O)Cn1c(=O)n(-c2ccc(C)c(C)c2)c(=O)c2c(C)c(C(=O)N(CC)CC)sc21,0.0%
CCOc1cc(C(=O)OCc2cc(=O)n3nc(CC)sc3n2)cc(OCC)c1OCC,-3.5%
CCC(=O)N1CCCc2cc(S(=O)(=O)Nc3ccc(C)c(C)c3)ccc21,-0.9%
Cc1cccc(C)c1OCC(=O)Nc1c(C(=O)c2ccccc2)oc2ccccc12,-0.3%

# Continuation:
canonical_smiles,ClpP mod
Cc1cc(C)c2oc(-c3ccc(Cl)c(NC(=O)c4cccs4)c3)nc2c1,u
Cc1ccc(NC(=O)c2nc(S(=O)(=O)Cc3ccc(F)cc3)ncc2Cl)cc1C,5.9%
CCN(c1ccccc1)S(=O)(=O)c1ccc(NC(=O)c2nc(SC)ncc2Cl)cc1,-2.5%
CCc1ccc(N2CC(C)Cn3c2nc2c3c(=O)n(CC(=O)O)c(=O)n2C)cc1 (stereo unspecified),-11.5%
Cc1ccc(CN2CCN(CC(=O)NCc3ccccc3Cl)C2=O)cc1,-0.6%
CCOC(=O)c1ccc(NC(=O)C2CCN(S(=O)(=O)Cc3ccccc3)CC2)cc1,3.0%
CC1(C)OC(=O)C2(Cc3ccc(Br)cc3N3CCCCC32)C(=O)O1 (stereo unspecified),-10.5%
CCOC(=O)c1c(NC(C)=O)c2c3c(sc2n1Cc1nc(-c2cccc(C)c2)oc1C)CCCC3,1.5%
COc1cccc(CNc2sc3c(c2C(=O)Nc2ccc(OC)cc2OC)CCC3)c1,-0.4%
COc1ccc(OC)c(CNC(=O)c2ccc3c(c2)c(C)c(C)n3C)c1,-22.4%
O=C(CSc1cn(CC(=O)N2CCCCC2)c2ccccc12)Nc1ccc(C(F)(F)F)cc1,1.3%
Cc1cccc(NC(=O)c2cc(S(=O)(=O)NCCc3ccccc3)ccc2F)c1C,1.0%
COc1ccc(-c2nc(SCC(=O)c3ccc(OC)c(Br)c3)n[nH]2)cc1,1.9%
CCNC(=O)C1CCN(S(=O)(=O)c2ccc3c(c2)CCCN3C(C)=O)CC1,0.9%
CCOC(=O)c1ccc(NC(=O)c2cn(-c3ccccc3)nc2-c2ccc(OC)c(OC)c2)cc1,u
CCOC(=O)C1CCN(c2cc3c(cc2NC(=O)c2ccc(Cl)cc2)n(C)c(=O)n3C)CC1,-6.5%
O=S(=O)(c1ccc(F)cc1F)N1CCN(c2nc(-c3cccs3)nc3ccccc23)CC1,4.1%
COc1ccc(-c2c(C#N)c(SCC(=O)Nc3ccc(Br)cc3)nc(C)c2C(=O)Nc2ccccc2)cc1,-19.3%
COc1ccccc1N1CCN(c2c(CN3CCCC3)c(=O)oc3ccccc23)CC1,-1.3%
COc1ccccc1-c1noc(CSc2nnc(Cc3ccccc3)n2-c2ccc(C)c(C)c2)n1,-0.4%
COc1cc2c(NC3CCN(C)CC3)nc(N3CCCN(C)CC3)nc2cc1OCCCCN(C)C,4.4%
Cn1cnc(S(=O)(=O)N2CCC(C(=O)Nc3ccc(F)cc3F)CC2)c1,0.4%
Cc1ccc(CNC(=O)c2c[nH]c3ccc(S(=O)(=O)Nc4ccc(C(C)C)cc4)cc3c2=O)cc1,-12.9%
COC(=O)CC(=O)CSc1nc2cc(C(=O)NCC(C)C)ccc2c(=O)n1CCc1ccccc1,-9.8%
CCOc1ccc(NC(=O)Cn2c(=O)n(Cc3ccc(C(=O)NCc4ccc(C)cc4)cc3)c(=O)c3ccccc32)cc1,-2.2%
O=C(O)c1ccc2c(c1)N(Cc1ccc(F)cc1)C(=O)c1ccccc1S2=O (stereo unspecified),1.2%
COc1cc2c(NC3CCN(C(C)C)CC3)nc(N3CCCN(C)CC3)nc2cc1OCCCN1CCCC1,3.9%
Cc1ccc(Cl)cc1NC(=O)c1ccc2nc(CCc3ccccc3)oc2c1,-28.3%
CCOC(=O)CSC1=Nc2ccccc2C2=NC(CCC(=O)NCc3ccccc3)C(=O)N12 (stereo unspecified),4.2%
COc1ccc(N2C(=O)CSC23C(=O)N(CC(N)=O)c2ccccc23)cc1 (stereo unspecified),-1.2%
COc1ccc2sc(N(Cc3cccnc3)C(=O)c3ccco3)nc2c1,-0.6%
CCNc1ncnc2c1nnn2C,0.0%
CCCC(=O)C1=C(c2ccc(C)cc2)N(C(=O)CCC)n2cnnc2S1,-3.0%
CC(NC(=O)c1ccc(N2Cc3ccccc3Oc3ncccc32)s1)c1ccccc1 (stereo unspecified),u
CCN(C(=O)CCNC(=O)Cn1cnc2ccccc2c1=O)c1cc(OC)ccc1OC,1.0%
COc1ccc(NC(=O)C2CCN(c3ccc(Sc4ccc(C)cc4)nn3)CC2)cc1,-4.5%
COc1cccc(CNC(=O)Cn2nc(N3CCN(c4ccccc4OC)CC3)ccc2=O)c1,1.2%
CCOC(=O)c1c(NC(=O)c2cc(=O)c3c(C)cc(C)cc3o2)sc(C(C)=O)c1C,-0.7%
C=CCn1c(SC(C)C#N)nc2ccccc2c1=O (stereo unspecified),0.5%
COc1ccccc1N1CCN(C(=O)c2cnn(-c3ccc(F)cc3F)c2C2CCNCC2)CC1,-2.4%
Fc1cccc(NCc2cccn2-c2nnc(N3CCOCC3)s2)c1,1.1%
COc1ccc(C(=O)c2cn(CC(=O)Nc3ccc4c(c3)OCCO4)c3ccc(OC)cc3c2=O)cc1,0.0%
COc1ccc(CNc2nc(-c3ccc(OC)cc3)cc(C(F)(F)F)n2)cc1,3.9%
Cn1nc(C(=O)N2CCN(c3ccc(Cl)cc3)CC2)c2c1-c1ccccc1SC2,2.8%
CCOc1ccc(-c2nnc(SCC(=O)NCCc3ccccc3)nc2-c2ccc(OCC)c(OC)c2)cc1OC,-6.3%
Cc1cc(/C=C/c2nc3ccccc3s2)ccc1N(C)C,-0.2%
Cc1ccc(NC(=O)N2CCN3CCCCC3C2)cc1F (stereo unspecified),-2.7%
CCN1C(=O)c2ccccc2Sc2ccc(NC(C)=O)cc21,2.5%
CCc1ccc(-n2c(=O)c3c4c(sc3n(CC(=O)N3CCCCC3CC)c2=O)CCC4)cc1 (stereo unspecified),1.2%
CCc1ccc(NC(=O)CSC2=Nc3ccccc3C3=NC(CCC(=O)NCc4ccccc4OC)C(=O)N23)cc1 (stereo unspecified),-2.6%
CC(C)c1ccc(C2Sc3ccccc3NC3=C2C(=O)c2ccccc23)cc1 (stereo unspecified),-0.6%
CCN(CC)c1ccc(/C=C/c2sc3ccccc3[n+]2CCCCI)cc1,1.3%

# A section from the list above:
canonical_smiles,ClpP mod
CC(C)c1ccc(C2Sc3ccccc3NC3=C2C(=O)c2ccccc23)cc1 (stereo unspecified),-0.6%
CCN(CC)c1ccc(/C=C/c2sc3ccccc3[n+]2CCCCI)cc1,1.3%

# These rows are one share of the data. The share of hits here may be higher or lower than overall.
